From PubChem BioAssay
VACV mCherry inh: inhibitors of vaccinia virus infection (mCherry reporter signal). Vaccinia virus mCherry reporter infection, fluorescence; about a quarter of the inactives have no number. Potency, µM (doses to about 36.5 µM), inactives show at the top dose activity change, negative = inhibition, most hits filed as inhibitors. 310,000 compounds, 0.63% hits. AID 720579; active = well fitted inhibition curve with a large enough effect; inconclusive = small, poorly fitted or top-dose-only effect; inactive = no such curve, though single readings can be large or run the other way; tested in A549 cells; also: nearly all actives have a fitted effect of over 35% in size; inactives centre near -10
Vaccinia Venus: vaccinia inhibition (Venus reporter). Vaccinia virus Venus reporter expression, fluorescence. Potency, µM (series often up to 36.5 µM), for the others: top-dose activity change, negative = inhibition, hits mostly inhibitors. 330,000 compounds, 0.46% hits; active means well fitted inhibition curve with a large enough effect; inconclusive means small, poorly fitted or top-dose-only effect; inactive means no such curve, though single readings can be large or run the other way; tested in A549 cells; also: nearly all actives have a fitted effect of over 30% in size; inactives centre near -10
The depositor's hits bear a star; i = inactive; ? = inconclusive; / = not tested or not shown; & = joins results of further samples; [ ] = another dose, or the depositor's remark. % is scaled to controls: 0 for no effect and ±100 for the full control effect; potency is read from the fitted curve at half-maximal effect.

Values run as follows: VACV mCherry inh, Vaccinia Venus
Cc1cc(NC(=O)C2CCN(S(=O)(=O)c3ccc(Br)s3)CC2)ccc1Br
  -16%, -22%
CC(=O)Nc1sc(C)c(C)c1C(=O)OCC(=O)NCc1ccccc1
  -11%, -5%
Cn1c(=NC(=O)c2ccco2)sc2cccc(F)c21
  i, -2%
CCCN(CCC)CCCNC(=O)CCNS(=O)(=O)c1ccc(Br)cc1
  -19%, -17%
Cc1cc(O)c(C(C[N+](=O)[O-])c2ccc(Cl)cc2)c(=O)o1 (centres undefined)
  i, -9%
CCOc1ccc(S(=O)(=O)N2CCCCC2)cc1NC(=O)C1CCC1
  -6%, -24%
CCOC(=O)C1=C(COC(=O)c2ccccc2[N+](=O)[O-])NC(=O)NC1C (centres undefined)
  i, -4%
Cc1ccccc1-c1noc(-c2ccc(NCC3CCCO3)c([N+](=O)[O-])c2)n1 (centres undefined)
  -2%, -8%
CC(C)Oc1ccc(S(=O)(=O)N2CCOCC2)cc1NC(=O)C1=COCCO1
  i, -13%
O=C(COC(=O)Cc1ccsc1)NC(c1ccccc1)c1ccccc1
  i, -7%
Cc1ccc[n+](C(C)C(=O)Nc2ccc([N+](=O)[O-])cc2C)c1 (centres undefined)
  -12%, -6%
C=CCN(c1ccccc1Cl)S(=O)(=O)c1cccc(C(=O)OCC(=O)N(C)C2CCS(=O)(=O)C2)c1 (centres undefined)
  -29%, -11%
COc1ccc(NC(=O)COc2ccccc2Cc2ccccc2)cc1S(=O)(=O)N1CCOCC1
  -12%, -26%
C[C@H](CO)N1C[C@H](C)[C@@H](CN(C)C(=O)c2ccccn2)Oc2cc(Br)ccc2S1(=O)=O
  -10%, -9%
COc1ccccc1CNS(=O)(=O)c1ccc2c(c1)CC(C)N2C(=O)C1CCC1 (centres undefined)
  -11%, -18%

Four of the compounds above, as labelled records:
> Cc1cc(NC(=O)C2CCN(S(=O)(=O)c3ccc(Br)s3)CC2)ccc1Br
  VACV mCherry inh: -16%	Vaccinia Venus: -22%

> CC(=O)Nc1sc(C)c(C)c1C(=O)OCC(=O)NCc1ccccc1
  VACV mCherry inh: -11%	Vaccinia Venus: -5%

> Cn1c(=NC(=O)c2ccco2)sc2cccc(F)c21
  VACV mCherry inh: i	Vaccinia Venus: -2%

> CCCN(CCC)CCCNC(=O)CCNS(=O)(=O)c1ccc(Br)cc1
  VACV mCherry inh: -19%	Vaccinia Venus: -17%

More records follow:
Values run as follows: VACV mCherry inh, Vaccinia Venus
Cc1ccc(-c2csc(NC(=O)C3=COCCO3)n2)cc1C
  ?, -8%
CCN1C(=O)N(C)[C@@H](c2ccccc2)C(C(C)=O)=C1C
  i, -6%
CSc1ccc(CN(C)C(=O)c2cc(Cl)c3c(c2)OCCO3)cc1
  13%, -5%
COC(=O)C1(O)CC(CC(C)C)=NN1C(=O)c1ccccc1 (centres undefined)
  -3%, 2%
O=C(NCC1CCCO1)NC1(C(F)(F)F)Oc2ccccc2O1 (centres undefined)
  -28%, -20%
CCc1noc(C)c1C(=O)N1CCN(c2ccc([N+](=O)[O-])cc2)CC1
  -10%, -16%
O=S(=O)(c1ccc(Br)cc1)c1nc(-c2ccccc2)oc1NCc1cccnc1
  -18%, -6%
Cc1ccc(C(C)C)cc1OCC(=O)Nc1nnc(C2CC2)s1
  2µM*, 14%
CC1CC2C3CCC4=CC(=O)CCC4(C)C3CCC2(C)C1(O)C(=O)CO (centres undefined)
  -20%, -12%
O=C(Nc1ccc(Br)cc1)c1cnccn1
  -9%, -15%
CCN(CC)c1ccc(C=NN2CCCCCC2)cc1
  ?, 1%
CC(C)c1ccc(OCC(=O)NC2=NCCS2)cc1
  -3%, -20%
O=C(c1ncn[nH]1)N1CCN(c2nc(-c3ccccc3)cs2)CC1
  i, -12%
CC(=O)c1ccc(S(=O)(=O)Nc2cccc(-c3cn4c(n3)SCC4)c2)cc1
  i, -6%
CN(C(=O)c1cccc(NC(=O)Cc2ccc(NC(=O)C3CCCN(C(=O)C4CCCCC4)C3)cc2)c1)C1CCCCC1 (centres undefined)
  -26%, ?
Cc1c(C(=O)N2CCCCC2)c(S(=O)(=O)NCc2ccccc2Cl)c(C)n1C
  -1%, -9%
Cc1ccc(S(=O)(=O)N/N=C2/CC(=O)CC(C)(C)C2)cc1[N+](=O)[O-]
  13%, -2%
O=C(COC(=O)c1cc(Br)ccc1Cl)NC(=O)NCc1ccccc1
  i, -9%
CC(=O)c1cccc(NC(=O)C(C)OC(=O)CCc2nc3ccccc3c(=O)[nH]2)c1 (centres undefined)
  -13%, -13%
COc1cccc(NC(=O)C(=O)NCC(c2ccc3c(c2)OCO3)N2CCN(C)CC2)c1 (centres undefined)
  i[7.34 µM], -3%[7.34 µM]
COc1cc(/C=N/NS(=O)(=O)c2ccc3ccccc3c2)ccc1OCc1ccc(C(=O)O)cc1
  i, 18%
COc1cc(CN2CCN(Cc3ccc(SC)cc3)CC2)cc(OC)c1O
  -27%, -1%
Cc1cccc(/C=N/NC(=O)NC23CC4CC(CC(C4)C2)C3)n1
  i, -24%
O=C(NCc1ccccc1)C1=C[C@@H](c2ccc3c(c2)OCO3)C[C@@H](OCCCCO)O1
  -12%, -15%
CCC(NC(=O)NNC(N)=S)(C(F)(F)F)C(F)(F)F
  ?, 28µM*
c1ccc(N=C(c2cccs2)N2CCOCC2)cc1
  /, -15%
CN(C(=O)CSc1nnc(Cc2cccs2)n1C1CC1)C1CCS(=O)(=O)C1 (centres undefined)
  -14%, -10%
Cc1ccc(NCc2nnc3n2CCCCC3)cc1Cl
  -12%, -9%
Cc1c([N+](=O)[O-])cc(C(=O)Nc2ccc(NC(=O)c3ccco3)cc2)cc1[N+](=O)[O-]
  -4%, -4%
C=CCNC(=O)NC(=O)COC(=O)c1cccnc1SC
  /, -5%

Single values from the results shown:
Cc1ccc(S(=O)(=O)N/N=C2/CC(=O)CC(C)(C)C2)cc1[N+](=O)[O-] in VACV mCherry inh: 13%
COc1cc(/C=N/NS(=O)(=O)c2ccc3ccccc3c2)ccc1OCc1ccc(C(=O)O)cc1 in Vaccinia Venus: 18%

(more compounds)
Values run as follows: VACV mCherry inh, Vaccinia Venus
CCN1CCCC1CNCc1cc2c(OC)c(OC)c(OC)cc2nc1N(C)C (centres undefined)
  -8%, 11%
Cc1c(C(=O)N2CCCC2)sc(NC(=O)c2ccco2)c1C#N
  /, 0%
CC(C)(C)N(Cc1ccccc1)C(=O)COC(=O)C1CC(=O)N(Cc2ccccc2)C1 (centres undefined)
  ?, -14%
Cc1ccc(C2=Nc3ccccc3N=C(c3ccc([N+](=O)[O-])cc3)C2)c(O)c1
  i, -7%
C#CCOCCOCCOCCNc1nc(N2CCN(C(=O)CCCCCCCCCCNC(=O)[C@H]([C@@H](C)CC)n3cc(CCCCN=C(N)N)nn3)CC2)nc(N2CCN(C(=O)CCCCCCCCCCNC(=O)[C@@H]([C@H](C)O)n3cc(C)nn3)CC2)n1
  ?, ?
COc1ccccc1N(CC(=O)NC1CCCCC1)C(=O)CCC(=O)Nc1nccs1
  -1%, -9%
CC(C(=O)NC(C)(C)C)n1c(-c2ccccc2)nc2ccccc21 (centres undefined)
  -11%, 6%
Cc1ccc(OCC(=O)NCC2(N3CCN(C)CC3)CCCCC2)cc1C
  -13%, -1%
O=S(=O)(C=C(c1ccccc1)c1ccccc1)c1ccccc1
  /, -11%
CCCCCCCN1C/C=C\C(c2ccc(OC)cc2)N(Cc2ccc(F)cc2)C(=O)[C@H]1Cc1ccccc1 (some centres undefined)
  -1%, -20%
N#CCCN(C(=O)COC(=O)c1cccc(S(=O)(=O)Nc2ccc([N+](=O)[O-])cc2)c1)c1ccccc1
  -11%, -5%
Cc1ccc(C)c(-c2csc(N)c2C(=O)OC(C)C)c1
  ?, ?
Cc1cc(NC(=O)NC(C)(C(F)(F)F)C(F)(F)F)no1
  i, -5%
CCN(CC)CCOC(=O)c1ccc(NC(=O)c2cc3c(s2)-c2ccccc2OC3)cc1
  ?, ?
CCN(CC)C(=O)Oc1ccc(Cl)c2ccccc12
  i, -10%
CSCCC(NC(=O)c1ccccc1)C(=O)Nc1ccncc1 (centres undefined)
  -10%, -11%
O=C(O)c1ccc2cccc(Cl)c2c1O
  -8%, 1%
O=C(COC(=O)c1ccccc1Cl)NC(=O)NCc1ccccc1
  -5%, -17%
CC(=O)c1ccc(N2CCN(C(=O)Nc3cccc(F)c3)CC2)cc1
  -11%, -17%&-16%
Cc1cc(Oc2ccccc2)nc(N2CCOCC2)n1
  /, -18%
CCOCCCn1c(SCC(=O)N2CCOCC2)nc2ccccc2c1=O
  i, -3%
Cc1cc(=O)oc(C)c1C(=O)NCC(C)C
  -13%, -4%
CCCn1c(SCC(=O)N2CCCCC2)nc2c1c(=O)n(C)c(=O)n2C
  -7%, -4%
COC(=O)c1ccccc1NC(=O)COC(=O)/C=C/c1cccs1
  i, -15%
N#Cc1c(SCc2cccc(Cl)c2)sc(C(=O)c2ccccc2)c1N
  /, -26%
CCOC(=O)c1sc(NC(=O)c2cccnc2)nc1C
  8%, -4%
O=C(c1ccc2c(c1)C(=O)N(Cc1ccncc1)C2=O)N1CCN(S(=O)(=O)c2ccc(OC(F)(F)F)cc2)CC1
  -14%, -4%
O=C1C(=C(c2ccccc2)N2CCOCC2)Cc2ccccc21
  ?, 11µM*
CCOc1ccc(C(F)(F)F)cc1NC(C)=O
  /, -11%
CC(C)CNS(=O)(=O)c1ccc(OCC(=O)NCc2ccco2)cc1
  -11%, -4%
C[C@H](NC(=O)[C@@H]1CCCN1C(=O)[C@@H]1CCCN1)c1ccccc1
  -6%, 3%
CC(Oc1ccccc1)C(=O)NN1Cc2ccccc2C1=N (centres undefined)
  -12%, -15%
CCc1nc2onc(C)c2c(=O)n1CC(=O)O
  1%, 0%
C[C@H]1COc2cccc(N3CCC[C@H]3CO)c2S(=O)(=O)N1
  -5%, 2%
CN(C)C(=C(C#N)C#N)N1CCN(c2ccc(Cl)cc2)CC1
  -25%, -7%
CN(C)C(CNS(=O)(=O)c1cc([N+](=O)[O-])ccc1Cl)c1ccco1 (centres undefined)
  ?, -8%
CCN(C(=O)COC(=O)c1ccc2[nH]c(C)c(C)c2c1)c1c(N)n(Cc2ccccc2)c(=O)[nH]c1=O
  ?, -20%
CN=C(Nc1cc(C)nn1CCC#N)c1ccc(F)cc1
  -14%, -3%
CC1(c2cccc(Br)c2)NC(=O)N(CC(=O)c2ccc3c(c2)OCCO3)C1=O (centres undefined)
  i, -14%
CCc1nc2ccc(C(=O)N3CCN(C(=O)c4ccco4)CC3)cn2c1N(C=O)Cc1ccc(OC)cc1
  i, 0%
CC(=O)N1CCN(c2ccc(NC(=O)c3ccccc3C)cc2)CC1
  i, -16%
O=C(CN1CCCN(Cc2cccc(F)c2)S1(=O)=O)Nc1ccc2c(c1)OCCO2
  -11%, -6%
CCc1ccc(NC(=O)c2c(Cl)nc(C)c(Cl)c2C)cc1
  ?, -29%
CCCn1c(=O)c(C(=O)NCc2ccccc2)c(O)c2ccccc21
  -23%, -6%
Fc1ccccc1-n1cn[nH]c1=S
  i, -3%
COc1cccc(C(=O)N2CCN(Cc3ccccn3)CC2)c1OC
  -14%, -13%
COc1ccc(NC(=O)Nc2cccc3c2O[C@H](CN(C)S(=O)(=O)c2cn(C)cn2)[C@@H](C)CN([C@H](C)CO)C3=O)cc1
  i, -9%
COc1ccc(C(=O)NCc2nnc(SCCOc3ccccc3)n2C)cc1
  -24%, -10%
Cc1cccc(C)c1NC1=C(Cl)C(=O)OC1OC(C)C (centres undefined)
  -12%, -9%
O=C1O[C@@H](c2ccccc2)C[C@@H](O)[C@H](O)CCCc2ccccc21
  -3%, -1%
Cc1[nH]c2ccccc2c1C(=O)C(=O)N1CCN(C)CC1
  -10%, 6%
COc1ccc(CCNC(=O)CSC2=Nc3ccccc3C3=NC(C(C)C)C(=O)N23)cc1OC (centres undefined)
  -15%, -8%
Cc1ccc(C(=O)OCC(=O)Nc2ccc(N3CCOCC3)cc2)cc1
  -14%, -3%
O=C(Nc1ccc(NC(=O)c2cccs2)cc1)c1ccccc1
  -11%, -9%
C=C1C(=O)O[C@@H]2[C@H]3O[C@]3(C)CC/C=C(\C)CC[C@@H]12
  i, -13%
CC1CCCC(C)N1CCOc1cc(N)ccc1C#N (centres undefined)
  -11%, -2%
CCOc1cc(-c2noc(CCC(=O)NC3CCCCC3)n2)ccc1OC
  -21%, -7%
COc1ccc([C@H]2CC(=O)C[C@@H](CCn3cccn3)O2)cc1
  -5%, 3%
Cc1ccc(C)n1-c1nn(S(=O)(=O)c2cccc(C(F)(F)F)c2)c2cccc(F)c12
  i, -9%
Cc1ccc(CN2CC(N3CCN(CCO)CC3)CS2(=O)=O)cc1 (centres undefined)
  28%, -2%

More structures follow.
Values run as follows: VACV mCherry inh, Vaccinia Venus
COc1cc(C)ccc1OCCCOc1ccccc1Br
  3%, 0%
COc1ccc(C2=Nc3ccccc3NC(=O)C2N(C(=O)c2ccnc3ccccc23)c2ccccc2)cc1 (centres undefined)
  i, -9%
C[n+]1c(-c2ccccc2)cc2c(=Cc3ccccc3)c3ccccc3n21
  /, 152%[activator]
CC(OC(=O)/C(C#N)=C/c1ccco1)C(=O)N(C)c1ccccc1 (centres undefined)
  i, 3%
CC(=O)c1ccc(NC(=O)CSc2nc(C3CCCC3)nc3c2c(=O)n(C)c(=O)n3C)cc1
  -17%, -21%
